Rango complex inh: inhibitors of Rango-importin beta complex formation. Q14974. Potency, µM (titrated, usually from 92.2 µM), without a hit: at the highest dose inhibition of complex formation. hit rate 0.031% among 340,000. Rango CFP/YFP FRET sensor + importin beta, 45 min. AID 540263; active = rising FRET ratio curve, often small or poorly fitted; inconclusive = mostly compound fluorescence or quenching in the first reads; inactive = flat curves in all reads;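 note: potency is the fitted concentration of half-maximal effect; 0% = DMSO wells and 100% = buffer wells lacking importin beta; nearly all actives have a fitted effect of over 15% in size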
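Inhibition scored from the CFP 486 nm/YFP 530 nm FRET ratio 45 min after adding 0.125 microM importin beta to 50 nM Rango biosensor preincubated 5 min with compound (room temperature, PBS with DTT, Tween-20, BSA). No-importin wells as positive control.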
GLA inh pH 4.5: blocks human alpha-galactosidase A at pH 4.5. 230,000 tested, under 10 active. activity change, negative = inhibition, % at 105 µM. AID 1467. purified enzyme, 4-MU-alpha-Gal fluorescence, pH 4.5; inconclusive = small, poorly fitted or top-dose-only inhibition, or a rising curve; inactive = flat fitted curve, though single readings scatter; no compound was filed as active;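 note: 0% = full activity with enzyme and -100% = basal without enzyme; dose as in the result columns while the protocol names 77 µM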
Target sequence (P06280 whole entry, looked up): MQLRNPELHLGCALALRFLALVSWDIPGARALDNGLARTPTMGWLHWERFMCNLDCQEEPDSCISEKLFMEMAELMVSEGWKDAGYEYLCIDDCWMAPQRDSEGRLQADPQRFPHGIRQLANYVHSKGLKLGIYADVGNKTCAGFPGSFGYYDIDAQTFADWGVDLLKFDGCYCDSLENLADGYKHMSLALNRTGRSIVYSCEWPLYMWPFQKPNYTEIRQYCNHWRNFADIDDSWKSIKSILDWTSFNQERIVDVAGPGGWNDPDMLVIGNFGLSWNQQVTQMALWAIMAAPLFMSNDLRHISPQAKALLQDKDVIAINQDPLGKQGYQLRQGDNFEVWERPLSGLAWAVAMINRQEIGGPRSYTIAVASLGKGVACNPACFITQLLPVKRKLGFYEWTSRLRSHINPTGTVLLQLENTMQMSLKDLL
miR-21 FLuc: miR-21 reporter, rising signal | Potency, µM (doses to about 38.3 µM), without a hit: at the highest dose reporter change, positive = more light | 340,000 tested, under 10 active | HeLa miR-21 FLuc reporter, luciferase, 48 h; active = well fitted rising curve with a large enough effect; inconclusive = small, poorly fitted or top-dose-only effect; inactive = no such curve, though single readings can be large or run the other way;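 note: % of control where 0% means no effect; miR-21 action dims this reporter so a rising signal means less miR-21 action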
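HeLa cells stably expressing CMV-driven firefly luciferase with a downstream miR-21 binding sequence, endogenously expressing miR-21, were treated with titrations (up to about 40uM final) for 48 hours at 37 degree Celsius. Luciferase luminescence was read after lysis.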
Rango release inh: inhibitors of RanGTP-induced Rango-importin beta complex dissociation | Biochemical FRET Rango-importin beta, RanGTP-induced dissociation | Potency, µM (titrated, usually from 46.1 µM), without a hit: at the highest dose activity change, negative = inhibition | hit rate 0.071% among 340,000 | AID 540253; active means falling FRET ratio curve, often poorly fitted, with flat reads before Ran was added; inconclusive means other falling curves, or compound fluorescence or quenching; inactive means flat or rising ratio curve;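 note: potency is the fitted concentration of half-maximal effect; % of control where 0% means no effect; nearly all actives have a fitted effect of over 45% in size; -100% = wells without RanGTP and RCC1; the record marks most hits as doubtful in a second field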
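Rango/importin beta premix (0.1/0.25 uM final), PBS + 1 mM DTT + 0.02% Tween-20 + 0.1% BSA; cpd 5 min RT; FRET pre-read; + RanGTP-RCC1 (0.6 uM Ran, 2 mM GTP, 0.2 uM RCC1); 45 min RT; FRET post-read, ex 430, em 486/530 nm.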
Numbers without * were called inactive; ? = inconclusive; . = no result given. An excerpt; count on the stated rates, not on these rows.

SMILES	Rango complex inh	GLA inh pH 4.5	miR-21 FLuc	Rango release inh
COc1ccc(N=C2SC(CC(=O)Nc3ccccc3)C(=O)N2CCc2ccccn2)cc1 (stereo not given)	-0.4%	-14	6%	-2%
C/C(=N\Nc1nc(N2CCOCC2)nc(N2CCOCC2)n1)c1cccc([N+](=O)[O-])c1	-3.9%	-5	1%	2%
N=c1c(S(=O)(=O)c2ccc(Br)cc2)cc2c(=O)n3ccccc3nc2n1Cc1ccccc1	?	.	-2%	-17%
Cc1cccn2c(=O)c3cc(C#N)c(=NC(=O)c4ccco4)n(Cc4ccco4)c3nc12	?	-6	4%	?
COCCN1CC(C(=O)NCc2ccccc2-n2ccnc2C)CCC1=O (stereo not given)	-0.2%	.	-3%	-13%
COc1ccc(-n2c(SC(C)C(=O)N3CCOCC3)nc3ccccc3c2=O)cc1 (stereo not given)	-3.0%	.	3%	5%
CC(=O)Nc1c(C(=O)O)oc2ccccc12	0.4%	14	-29%	3%
NC(=O)Nc1ccccc1C(=O)NCCc1ccccc1	-1.7%	5	-61%	-14%
Cn1c(SCC(=O)N2CCCC2)nnc1-c1cccs1	-0.1%	.	-10%	8%
Cc1cc(C(=O)O)c2ccccc2n1	-0.2%	-5	-1%	0%
CN(c1cccc(NC(=O)CN(c2cccc(Cl)c2)S(=O)(=O)c2ccc(Cl)cc2)c1)S(C)(=O)=O	-0.3%	-9	14%	?
Cc1ccc(C(=O)/C=C/c2c[nH]c3ccccc23)cc1	?	-17	-37%	?
Cn1c(C(=O)O)c(C=O)c2ccccc21	4.0%	6	-2%	5%
NNc1nccc(Nc2ccccc2C(=O)O)n1	4.7%	-2	-3%	-9%
COc1ccc(N2CCN(C(=O)c3ccc(Br)o3)CC2)cc1	-3.6%	.	-6%	22%
O=C(NCC12CC3CC(CC(C3)C1)C2)c1nn2c(c1Cl)NC(c1ccco1)CC2C(F)(F)F (stereo not given)	?	9	9%	-9%
O=C(/C=C/c1ccc([N+](=O)[O-])cc1)Oc1ccc(/C=N/NC(=O)c2ccncc2)cc1	?	.	0%	-25%
CCN1C(=O)c2ccccc2S(=O)(=O)c2ccc(C(=O)N3CCOCC3)cc21	?	3	-1%	?
Cc1ccc(S(=O)(=O)N2CCOCC2)cc1NC(=O)CSc1nnc(N)s1	0.1%	3	2%	-6%
COc1ccccc1C(=O)Nc1ccnn1C1CCN(C/C=C/c2ccccc2)CC1	-0.7%	.	1%	-6%
S=C(Nc1ccc(Cl)cc1)N1CCN(C2CCCCC2)CC1	-2.1%	-4	-2%	7%
Cc1cccc(NC(=O)CSCC(=O)N(C)CC(=O)Nc2cccc(F)c2)c1	-2.5%	.	.	-12%
CC(NC(=O)CCCN1C(=O)c2ccccc2C1=O)c1ccc2c(c1)CCCC2 (stereo not given)	-1.2%	-5	-3%	-3%
Cc1ccc(C)c(S(=O)(=O)N2CCN(CC(=O)NC(C)c3ccccc3)CC2)c1 (stereo not given)	0.6%	.	.	-4%
O=C(CSc1ccccc1)N1CCC(N2CCC(C(=O)N3CCCC3)CC2)CC1	-7.9%	0	1%	3%
CCN(CC)S(=O)(=O)c1cccc(C(=O)N/N=C(\C)c2ccc(O)cc2O)c1	?	2	15%	?
COC(=O)C(NS(=O)(=O)c1ccc(NC(C)=O)cc1)C(C)C (stereo not given)	-5.0%	0	-1%	-4%
CCOC(=O)C1(Cc2cccc(F)c2)CCN(CCCn2cccn2)CC1	0.2%	4	-2%	20%
CC(C(=O)NCCC1=CCCCC1)N1C(=O)c2ccccc2C1=O (stereo not given)	-2.5%	-8	0%	-6%
CC(c1ccccc1)n1cc(C(=O)NCCCn2ccnc2)nn1 (stereo not given)	0.2%	-3	-5%	2%
CC(C)CCNC(=O)CN(Cc1ccc(F)cc1)C(=O)CCC(=O)Nc1ccccn1	-0.1%	.	6%	-1%
Cc1nc(Sc2ccc(Br)cc2)c(C#N)c(C)c1[N+](=O)[O-]	0.9%	-9	1%	-4%
COc1cccc(CNCc2ccccn2)c1OC	0.8%	13	-12%	2%
CCOC(=O)N1CCN(C(=O)c2ccc3c(c2)N(Cc2ccccc2)CCS3)CC1	-0.2%	.	21%	10%
O=C(N/N=C/c1ccc([N+](=O)[O-])cc1)c1cc(C2CC2)nc2ccccc12	-1.6%	-4	30%	33%
Cc1nn(-c2ccccc2)c2c1C(c1ccc(Br)s1)C(C#N)=C(N)O2 (stereo not given)	0.3%	-9	6%	6%
COc1ccc(NC(=O)NNC(=O)C(C)Oc2ccc3ccccc3c2)cc1OC (stereo not given)	0.7%	.	5%	-7%
COc1cc(C)ccc1OCCOCCOc1cc(C)c(C)cc1Br	6.5%	2	-7%	1%
CCCN(C(=O)C1CSC2(C)CCC(=O)N12)c1c(N)n(Cc2ccccc2)c(=O)[nH]c1=O (stereo not given)	1.9%	.	.	8%
c1cc(CNCCNCc2ccncc2)ccn1	?	.	.	-21%
CCN1CCN(Cc2ccc(NC(=O)c3cc(NC(=O)c4cncc(-c5cccs5)c4)cc(OC)c3)cc2C(F)(F)F)CC1	6.6%	.	?	10%
Cc1ccccc1OCC(=O)Nc1cc(S(=O)(=O)N2CCCCC2)ccc1N1CCN(C)CC1	0.7%	-2	-10%	5%
Cc1ccc(S(=O)(=O)NCc2ccc(C(=O)N3CCc4ccccc4C3)cc2)cc1	-4.4%	3	-3%	18%
Cn1cccc1CC(=O)N/N=C/c1ccc(C(C)(C)C)cc1	-0.6%	0	-65%	-9%
O=C(CS(=O)CC(=O)Nc1cccc2c1CCCC2)Nc1ccc(F)cc1 (stereo not given)	0.1%	3	-8%	1%
O=C1NN(c2ccccc2)C(=O)/C1=C/c1ccc(-c2ccc(Cl)c(C(=O)O)c2)o1	?	-9	0%	7%
COc1cccc(N2CCN(C(=O)c3cc(-c4ccc(F)cc4)[nH]c3C)CC2)c1	-2.1%	.	14%	-12%
O=C(Cn1cncn1)NCc1ccccc1Br	0.2%	7	-3%	24%
Cc1ccccc1NC(=O)CN(C)S(=O)(=O)c1cccc2cccnc12	0.9%	0	-10%	-2%
CCOc1cc(C(=O)Nc2ccc(S(=O)(=O)Nc3cnc4ccccc4n3)cc2)cc(OCC)c1OCC	3.4%	.	.	33%
O=C1c2ccccc2C(=O)N1CCC#Cc1ccc2cc(CCCO)oc(=O)c2c1	-0.1%	.	.	0%
O=C(NCc1cccnc1)c1cccc(Cl)c1	-2.7%	-1	-10%	-10%
COc1cc(C)c(CN2CCC(n3nccc3NC(=O)C3CCOC3)CC2)cc1C (stereo not given)	-0.8%	.	2%	10%
CC(C)C(C(=O)NCc1ccco1)N(C(=O)CNS(=O)(=O)c1ccc(Cl)cc1)C1CCCC1 (stereo not given)	-0.3%	-6	-1%	0%
CN(C)CC(=O)N1c2ccccc2Sc2ccc(Cl)cc21	1.5%	6	-4%	-6%
COc1ccccc1N1CCN(S(=O)(=O)CCNC(=O)Cc2ccc(F)cc2)CC1	-2.0%	.	.	-4%
CCOc1ccccc1N(C)C(=O)CCS(=O)(=O)c1ccc2c(c1)NC(=O)C(C)S2 (stereo not given)	-0.4%	.	10%	-17%
Cc1ccc(OC(C)C(=O)Nc2ncc(Cl)cc2Cl)c([N+](=O)[O-])n1 (stereo not given)	-0.6%	.	.	15%
Cc1occc1C(=O)NNC(=O)C1CC1	-0.4%	8	-1%	1%
O=C(NCCc1ccccc1)c1ccc(Cl)nc1	-0.7%	-1	-44%	2%
Going on with the list.
SMILES	Rango complex inh	GLA inh pH 4.5	miR-21 FLuc	Rango release inh
NC(=O)Cn1cc(/C=N\NS(=O)(=O)c2ccccc2)c2ccccc21	1.2%	.	0%	1%
COc1ccccc1N1CCN(C(=O)C2CC=CCC2C(=O)O)CC1 (stereo not given)	-0.6%	-1	-3%	3%
CCCCc1cc(=O)oc2cc(C)cc(OCc3nn[nH]n3)c12	-1.0%	-4	2%	-3%
CC(C)C(=O)Nc1cc(=O)[nH]c2ncnn12	-0.8%	7	-8%	-11%
COc1ccc(-c2nc(SCC(=O)Nc3c(F)cccc3F)n[nH]2)cc1	-0.4%	.	.	1%
N=C1/C(=C/c2coc3ccccc3c2=O)C(=O)N=C2SC(c3ccco3)=NN12	?	-2	-7%	?
COc1cccc(CNn2cnnc2)c1OCc1ccc(F)cc1	0.0%	4	-2%	-1%
O=C1CC(c2c(F)cccc2Cl)C2=C(COC2=O)N1 (stereo not given)	1.7%	1	-1%	2%
O=C(CN(C(=O)c1ccccc1Cl)N1C(=O)C2C3C=CC(C3)C2C1=O)c1cccs1 (stereo not given)	-2.5%	2	-1%	-13%
COc1cc(CN2CCN(c3ccccc3C)CC2)cc([N+](=O)[O-])c1O	3.2%	0	-6%	-1%
Nc1nc(-c2ccc([N+](=O)[O-])cc2)c(C(=O)Nc2ccc(Cl)cc2)s1	0.2%	-2	-9%	-16%
COc1ccc(NC(=O)c2ccccc2NC(=O)C2CC=CCC2C(=O)O)cc1 (stereo not given)	0.2%	.	-44%	-9%
CCN(c1ccccc1)c1ncnc2c1cnn2-c1ccccc1	0.4%	-5	-62%	11%
CCn1c2c(c3cc(Br)ccc31)CCC/C2=N\O	?	9	-18%	2%
O=C1CCC(C(=O)OCc2ccccc2)N1 (stereo not given)	?	-16	-3%	-1%
Cc1[nH]c(=O)nc(SCc2ccc(Cl)c(Cl)c2)c1C#N	?	.	0%	?
CSc1ncc(Cl)c(C(=O)Nc2nnc(SC)s2)n1	0.0%	-3	-2%	-3%
CC1CC(C#N)N(N(C)C)C1=C(C#N)C#N (stereo not given)	-2.6%	-2	-2%	17%
c1ccc(-c2nnc(-c3ccccc3)c(-c3c[nH]c4ccccc34)n2)cc1	?	-12	-10%	-10%
COc1ccc2[nH]c(=O)c(CN(CCO)C(=O)NCc3ccccc3)cc2c1	-5.4%	10	-6%	-5%

Compound profiles (already shown). Order of screens: Rango complex inh, GLA inh pH 4.5, miR-21 FLuc, Rango release inh
Record of N=C1/C(=C/c2coc3ccccc3c2=O)C(=O)N=C2SC(c3ccco3)=NN12 : ?, -2, -7%, ?
Record of CC(C)C(=O)Nc1cc(=O)[nH]c2ncnn12 : -0.8%, 7, -8%, -11%
Record of COc1ccccc1N1CCN(C(=O)C2CC=CCC2C(=O)O)CC1 (stereo not given) : -0.6%, -1, -3%, 3%
Record of O=C(CN(C(=O)c1ccccc1Cl)N1C(=O)C2C3C=CC(C3)C2C1=O)c1cccs1 (stereo not given) : -2.5%, 2, -1%, -13%
Record of COc1ccc(NC(=O)c2ccccc2NC(=O)C2CC=CCC2C(=O)O)cc1 (stereo not given) : 0.2%, ., -44%, -9%

Further results follow:
SMILES	Rango complex inh	GLA inh pH 4.5	miR-21 FLuc	Rango release inh
COc1cccc(CN(C(=O)c2cnccn2)C(C(=O)NC2CCCCC2)c2cc(OC)c(OC)c(OC)c2)c1 (stereo not given)	2.6%	.	1%	-3%
O=C(NNC(=S)Nc1ccc(F)cc1)C1CC1c1ccc(Cl)cc1 (stereo not given)	0.9%	6	-2%	42%
O=C(COn1nnc2ccc(Cl)cc21)Nc1ccc(F)cc1	-0.9%	1	0%	8%
CC1(C)Cc2ccccc2-c2nc(-c3ccccc3)oc(=O)c21	-2.8%	4	-4%	4%
CCOC(=O)C1CCCN(C(=O)Cn2nc(C)n3nc(-c4ccccc4)cc3c2=O)C1 (stereo not given)	1.2%	.	-2%	14%
C/C(=C/CCC(C)(O)C1CC[C@@]2(C)[C@@H]3CC=C4[C@@H](CC[C@H](O[C@H]5O[C@@H](CO)[C@H](O)[C@@H](O)[C@@H]5O)C4(C)C)[C@]3(C)C(=O)C[C@]12C)CO[C@@H]1O[C@H](CO)[C@@H](O)[C@H](O)[C@H]1O (stereo not given in full)	0.6%	.	.	1%
COc1ccc2nc(Nc3nc4cc5c(cc4s3)OCO5)sc2c1	0.4%	-12	-56%	3%
COc1cc(C)ccc1OC(C)C(=O)Nc1ccc(N2CCCCC2)cc1 (stereo not given)	1.9%	.	.	1%
